Compound activity as filed in PubChem.
Mtb MbtI inh – blocks the Mycobacterium tuberculosis siderophore enzyme MbtI; P9WFX0; purified MbtI enzyme, fluorescence intensity read-out; inhibition, %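 (about 17 µg/mL by stock and volumes)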; 0.89% of 100,000 active;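 active means above 50% in both replicates, above 80% if mildly self-fluorescent; inactive means the rest, strongly fluorescent compounds included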;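 further: 0% = mean of negative and 100% = mean of positive controls; one replicate is shown; some compounds called inactive have numbers as strong as hits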
Target sequence (P9WFX0 whole entry, looked up): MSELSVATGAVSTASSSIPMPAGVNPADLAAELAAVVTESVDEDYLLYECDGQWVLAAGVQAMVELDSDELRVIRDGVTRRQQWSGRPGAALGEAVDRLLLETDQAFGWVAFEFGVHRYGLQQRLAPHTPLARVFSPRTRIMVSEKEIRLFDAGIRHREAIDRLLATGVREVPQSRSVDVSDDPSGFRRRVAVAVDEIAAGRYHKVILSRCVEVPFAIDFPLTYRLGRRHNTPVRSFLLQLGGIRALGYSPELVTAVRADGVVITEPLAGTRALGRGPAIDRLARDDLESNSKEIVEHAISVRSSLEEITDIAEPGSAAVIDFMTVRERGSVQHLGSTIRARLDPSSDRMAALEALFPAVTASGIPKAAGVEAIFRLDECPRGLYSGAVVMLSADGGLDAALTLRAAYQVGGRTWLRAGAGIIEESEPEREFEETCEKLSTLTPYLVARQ
MenB inh – inhibitors of Mycobacterium tuberculosis MenB enzyme; P9WNP5; MenB enzyme assay, absorbance read-out; some hits fall short of the stated cut; inhibition, %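 (about 12 µg/mL by stock and volumes)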; 0.43% of 100,000 active; AID 540299;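 active means mean of two replicates above 30%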;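 further: 0% = no compound and 100% = wells with inactive enzyme; the first replicate is given; strong numbers were not always called active; inactives centre near -10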
Polio RdRp inh – poliovirus RNA polymerase inhibition; 0.66% of 150,000 active; % elongation, % (compound at 16.7 µg/mL); P03300; poliovirus polymerase elongation, fluorescence polarization; hits give low values; in the data active means % elongation below about 90%; further: some results filed as inactive read as strong as hits
Target sequence (P03300 1749-2209 limits assumed): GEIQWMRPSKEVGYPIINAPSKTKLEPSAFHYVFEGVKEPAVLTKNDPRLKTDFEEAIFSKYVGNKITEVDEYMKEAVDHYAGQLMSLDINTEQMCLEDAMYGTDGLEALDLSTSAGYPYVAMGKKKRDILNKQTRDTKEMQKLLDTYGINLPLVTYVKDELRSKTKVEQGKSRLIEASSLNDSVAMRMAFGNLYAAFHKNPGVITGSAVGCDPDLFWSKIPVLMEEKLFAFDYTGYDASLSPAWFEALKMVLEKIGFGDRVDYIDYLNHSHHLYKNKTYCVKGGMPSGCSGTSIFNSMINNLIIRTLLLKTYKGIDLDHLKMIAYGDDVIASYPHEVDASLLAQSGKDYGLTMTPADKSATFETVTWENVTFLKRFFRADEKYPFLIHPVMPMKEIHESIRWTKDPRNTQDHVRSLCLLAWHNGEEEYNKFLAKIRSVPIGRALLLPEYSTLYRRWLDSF
Polio RdRp inh intensity – further read-out of Polio RdRp inh, marked with its call; % elongation; measured here: total intensity read-out; formula for this scale not given here;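 total fluorescence in place of polarization; lower means less elongation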
* hit, by the source's call; i = inactive; · = no result given; & = joins results of further samples.

SMILES,Mtb MbtI inh,MenB inh,Polio RdRp inh,Polio RdRp inh intensity
Cc1c(C)c(C)c(C(=O)CCc2cccc(NC(=O)C3CCC3)c2)c(C)c1C,-1,-20,108,104
CC1=C(NC(=S)NC(=O)c2ccccc2)NCc2ccccc21,·,-3,104,97
O=C(N/N=C/c1ccccn1)NC12CC3CC(CC(C3)C1)C2,-25,-31,101,103
CCS(=O)(=O)c1ccc(O)c(NC(=O)Nc2ccccc2)c1,9,-26,97,95
Fc1ccc(-c2nnc(CSCc3cccc4ccccc34)o2)cc1,-10,-11,99,93
O=C(Cn1cnc2c(cnn2CCO)c1=O)c1ccc(Cl)cc1,3,4,103,105
Oc1cccc2c1Cc1ccccc1-2,-3,-57,102,102
O=C(O)C1C2C=CC(O2)C1C(=O)Nc1ccc(S(=O)(=O)N2CCc3ccccc32)cc1 (configuration not stated),-7,-8,103,102
COC(=O)Cn1c2c(c3cc(C)ccc31)CCCC2,-3,4,98,102
O=C(CN1CCN(C(=O)c2ccc(-c3ccccc3)cc2)CC1)N1CCCC1,4,-26,102,100
C=CCN(c1ccc(C(=O)N2CCC(C(=O)OCC)CC2)cc1)S(C)(=O)=O,-7,-26,104,107
O=C1C2ON(c3ccccc3)C(c3ccco3)C2C(=O)N1c1ccccc1 (configuration not stated),-10,3,103,104
CCOc1ccc(OCCOc2ccc(CNCC(=O)N(C)C)cc2OCC)cc1,-2,8,97,104
O=C(NCC(=O)N1CCN(C2CCS(=O)(=O)C2)CC1)c1ccc2c(c1)OCO2 (configuration not stated),20,-14,101,94
C/C(C/C(C)=C1/SC(=S)NC1=O)=C1\SC(=S)NC1=O,81*,-54,102,100
C[C@@H](O)[C@H]1C(=O)N2C(C(=O)O)=C(S[C@@H]3CN[C@H](C(=O)N(C)C)C3)[C@H](C)[C@H]12,-1,1,102,102
CCOC(=O)C1=C(CNc2cccnc2)NC(=O)NC1c1ccccc1 (configuration not stated),1,-1,100,103
O=C1CC(NC2CCN(C(=O)c3cccc(F)c3)CC2)C(=O)N1 (configuration not stated),-5,-39,104,103
COc1ccc(CNc2nc(-c3cccnc3)nn2S(C)(=O)=O)cc1,-4,-9,102,104
COC(=O)C1=C(NC(=O)c2cccc(C)c2)CCS1,10,-12,101,101
COc1ccc(OC)c(C(=O)COC(=O)c2ccco2)c1,-16,-8,99,96
NC(=O)C1CCN(C(=O)COc2ccc(Cl)cc2Cl)CC1,-2,22,100,102
COC(=O)c1sccc1NC(=O)c1cc(C)on1,-8,7,100,103
COc1ccc(OCCOC(=O)c2cccs2)cc1,-14,-33,105,105
COc1ccc(S(=O)(=O)c2c(SC)nn(C)c2N)cc1,-26,-8,101,102
CC(C)(O)C1Cc2cc3ccc(=O)oc3cc2O1 (configuration not stated),58,-3,101,100
Oc1c(C(Nc2cccc(Cl)c2)c2cccnc2)ccc2cccnc12 (configuration not stated),35,-91,103,105
COc1ccccc1S(=O)(=O)Nc1ccc2nc(SC)sc2c1,9,-34,102,102
CCC1Sc2ccc(S(=O)(=O)CCC(=O)N3CCOCC3)cc2NC1=O (configuration not stated),2,-20,102,99
Cc1nc(N(C)CC(=O)N2CCOCC2)c2c(-c3ccccc3)csc2n1,-2,-12,105,109

Reformatted: results already given
> O=C(NCC(=O)N1CCN(C2CCS(=O)(=O)C2)CC1)c1ccc2c(c1)OCO2 (configuration not stated)
- Mtb MbtI inh = 20
- MenB inh = -14
- Polio RdRp inh = 101
- Polio RdRp inh intensity = 94
> C/C(C/C(C)=C1/SC(=S)NC1=O)=C1\SC(=S)NC1=O
- Mtb MbtI inh = 81*
- MenB inh = -54
- Polio RdRp inh = 102
- Polio RdRp inh intensity = 100
> C[C@@H](O)[C@H]1C(=O)N2C(C(=O)O)=C(S[C@@H]3CN[C@H](C(=O)N(C)C)C3)[C@H](C)[C@H]12
- Mtb MbtI inh = -1
- MenB inh = 1
- Polio RdRp inh = 102
- Polio RdRp inh intensity = 102
> CCOC(=O)C1=C(CNc2cccnc2)NC(=O)NC1c1ccccc1 (configuration not stated)
- Mtb MbtI inh = 1
- MenB inh = -1
- Polio RdRp inh = 100
- Polio RdRp inh intensity = 103

Next entries follow:
SMILES,Mtb MbtI inh,MenB inh,Polio RdRp inh,Polio RdRp inh intensity
O=C(O)CC(Cc1ccc(Cl)cc1)C(=O)Nc1ccccc1 (configuration not stated),·,-3,101,102
COc1cccc(/C=N/n2cnc3sc4c(c3c2=O)CCCC4)c1,14,5,101,97
CC(C)N(C(C)C)S(=O)(=O)c1ccc(N2CCc3ccccc3C2)nc1,62,-1,101,110
Cn1c(SCCN2CCCC2)nnc1C1CCN(C(=O)Cc2cccc(Cl)c2)CC1,-5,-2,101,102
Cc1ccc(NNC(=S)NC(C)C)c(C)c1,23,-52,104,99
Clc1ccc(SCc2csc(-c3ccno3)n2)cc1,37,-8,100,99
Cc1nnc(NC(C)C)s1,-13,-10,106,111
COc1ccccc1OCC(=O)NCC1CCCCC1,5,10,105,99
O=C(CCC(=O)c1ccc2c(c1)OCCO2)OCc1ncc(-c2ccccc2)o1,-1,5,104,105
CCOC(=O)c1c(NC(=O)CN2C(=O)S/C(=C/c3ccc(F)cc3)C2=O)sc2c1CCCC2,·,-12,104,104
COc1ccc(NC(=O)NCc2noc3ccc(C)cc23)c(OC)c1,-9,-6,102,107
CSc1ccc(C(=O)CCC(=O)O)cc1,5,18,99,107
C=CCNC(=O)/C=C/c1cccs1,27,-13,103,107
Cc1ccsc1CCN1CSC2=C(C#N)C(c3ccc(Cl)cc3)CC(=O)N2C1 (configuration not stated),52,-23,99,92
Cc1onc(-c2ccccc2)c1C(=O)OCC(=O)N(C)Cc1cccs1,5,2,101,107
O=C(CC(NCc1ccccc1)C(=O)O)Nc1cccnc1 (configuration not stated),19,13,102,104
COc1ccc(Br)cc1CNC(=O)c1cc2c(=O)[nH]c3ccccc3c2n1C,5,-29,99,100
Cn1c(=O)c2c(nc(NNC(=O)C(F)(F)F)n2C)n(C)c1=O,19,6,101,103
Cc1cccc2c1SC1CCCCC1OC(=O)N2 (configuration not stated),5,-29,102,99
c1cc(Oc2ncnc3sc4c(c23)CCCC4)cc(-n2cnnn2)c1,-13,-11,106,106
CCCc1cc(=O)[nH]c2nnc(SCC(=O)Nc3ccccc3C(F)(F)F)n12,16,-3,104,100
CC(=O)N1CCC(=NNc2ccnc3cc(Cl)ccc23)CC1,-6,-48,103,99
O=C(CCC(=O)N1CCSc2ccccc21)Nc1cccc(F)c1,-12,-31,101,103
O=C(Cc1csc(NC(=O)Cc2ccccc2)n1)NO,1,6,102,99
COC(=O)c1cc2c(ccn2-c2ccc(F)cc2)n1CC(=O)Nc1ccc(C)cc1,36,-38,104,102
S=c1n(CN2CCOCC2)nc2n1CCCCC2,·,-9,107,109
O=C(Nc1ccccc1C(=O)OCc1csc(Nc2ccccc2)n1)c1ccco1,8,9,119,135
CCc1ccc(CNC(=O)C2CCCN2c2nnc(N3CCCC3=O)s2)cc1 (configuration not stated),-1,-2,99,102
CCOC(=O)c1[nH]cnc1C(=O)NC1CCCCC1,0,-18,102,104
COc1cc(C(=O)N2CCC(n3nnc4cc(F)ccc43)CC2)cc(OC)c1OC,-1,-28,103,103
O=C(CCC(=O)c1ccc(Cl)cc1)Nc1c(F)cccc1F,-8,·,102,105
Cc1cc(C(=O)CCC(=O)O)cc(C)c1O,7,-12,99,99
O=C(OCCN1C(=O)c2ccccc2C1=O)c1cc(-c2ccco2)nc2ccccc12,-42,3,107,100
COc1ccc(OC2C(=O)N(Cc3ccc(F)cc3)C2c2ccc(OC)c(OC)c2)cc1 (configuration not stated),-11,-10,100,102
O=C1CCCC/C1=C\N1CCOCC1,5,2,94,103
O=S(=O)(Nc1ccc2c(c1)oc1ccccc12)N1CCCC1,·,-8,99,104
Cn1c(/C(C#N)=c2/s/c(=C\c3ccsc3)c(=O)n2-c2ccccc2)nc2ccccc21,5,-36,103,107
O=C(Nc1cccc(F)c1)C1CCCN(c2cnccn2)C1 (configuration not stated),-255,7,100,103
Cc1onc(-c2c(Cl)cccc2Cl)c1NC(=O)N1CCOCC1,-3,1,102,96
O=C(Nc1nccs1)C1CC1,-6,-5,103,101
COc1cc2c(cc1OC)C(C)N(C(=O)c1ccc(F)cc1)CC2 (configuration not stated),4,-1,97,98
O=C1CCCC(=O)C1C(c1ccccc1)C1C(=O)CCCC1=O,-8,-11,104,109
Cc1ccc(NS(=O)(=O)c2c(C(C)C)cc(C(C)C)cc2C(C)C)cc1,-4,-17,101,103
NC(=O)C1CCN(CN2C(=O)c3ccccc3C2=O)CC1,1,-7,105,102
CCN(CC)CCNc1nc(C)cc(C)n1,-6,-14,102,102
CN(C(=O)CSc1ccc(Cl)cc1)c1ccccc1C(=O)NC1CCCCC1,2,-17,104,102
O=C(O)CCCC(=O)N1CCN(c2ncccn2)CC1,-11,2,102,110
CN(C(=O)Oc1ccc(C(C)(C)C)cc1)c1ccccc1,-6,-23,100,103
CN1CCCC(OC(=O)c2ccco2)C1 (configuration not stated),·,5,103,109
CCCCC/C=C\C/C=C\C/C=C\C/C=C\CCCCCC(=O)O,-13,10,102&100,102&101
Cc1cc(C(=O)O)on1,2,-18,102,100
N#Cc1nc(N2CCCC2)nc(N(c2ccccc2)c2ccccc2)n1,·,-8,107,106
N#Cc1c(NC(=O)c2cccnc2)sc2c1CCCC2,10,-23&-1,102&102,101&103
N#CC1=C(N)N(N2CCOCC2)C2=C(C(=O)CC(c3ccccc3)C2)C1c1ccccc1Cl (configuration not stated),-1,-34,102,104
O=C(O)C1CC1c1ccccc1 (configuration not stated),-10,-34,99,99
O=C(Nc1ccccc1Sc1ncnc2sc3c(c12)CCCC3)c1cccs1,17,-6,103,98
Cc1nc(N(c2ccccc2)c2ccccc2)sc1C,2,-24,98,98
O=C(CCn1c(SCc2cccc(F)c2)nc2cc3c(cc2c1=O)OCO3)NCc1ccc2c(c1)OCO2,-5,5,101,102
O=C(NC1CCCCCC1)[C@@H]1CCCN1S(=O)(=O)c1ccc2c(c1)OCCO2,6,-16,104,99
O=C(c1ccc(CN2C(=O)CCn3nc(-c4ccccc4)cc32)cc1)N1CCN(c2ccccn2)CC1,-12,1,103,104

Additional structures:
SMILES,Mtb MbtI inh,MenB inh,Polio RdRp inh,Polio RdRp inh intensity
CC(C)CNC(=O)c1ccc(COCC(F)(F)C(F)F)o1,4,-3,100,102
Cc1nn(CCOc2c(Cl)cccc2Cl)c(=O)c(C#N)c1C,1,-11,103,107
O=c1c(Br)c(N2CCNCC2)cnn1-c1ccccc1,1,-11,100,102
O=C(COC(=O)Cc1ccccc1)Nc1cccnc1Cl,-14,3,102,98
CN(C)Cc1c(C(=O)N/N=C/CCc2ccccc2)nnn1-c1nonc1N,10,-25,104,101
CCC(C)NC(=O)CCn1c(=O)c2cccn2c2ccc(F)cc21 (configuration not stated),-31,-12,102,102
CC1CN(S(=O)(=O)c2ccc(NC(=O)CCS(=O)(=O)c3ccccc3)cc2)CC(C)O1 (configuration not stated),-6,4,105,111
CC(=O)Nc1sc(Cc2ccccc2)c(C)c1C(N)=O,·,-8,93,101
CC(OC(=O)c1cccc(NS(C)(=O)=O)c1)C(=O)Nc1ccc(N2CCOCC2)cc1 (configuration not stated),-26,-27,107,111
Cc1nc(N)nc2[nH]c(=O)n(-c3ccccc3)c(=O)c12,-48,-7,97,102
O=C(Nc1ccc(Oc2ccccc2)cc1)C1CCN(c2nc3ccccc3o2)CC1,-19,5,98,105
CCOc1ccc(NC(=O)C/C(N)=N/O)cc1,-5,-1,101,102
CC(C)C1Nc2ccc(C(F)(F)F)cc2NC1=O (configuration not stated),5,·,102,98
O=C1NC(=O)C2(CCOCC2)C(=O)N1,-6,4,107,109
CN(C)CCC(c1ccc(Cl)cc1)c1ccccn1 (configuration not stated),0,-1,100,103
CCN1CCN(C(=O)c2cccc(Nc3nc4ccccc4n4cnnc34)c2)CC1,0,-24,102,102
O=C(Nc1ccccc1)OC1CCCC1,-4,-12,108,111
CCN(c1nc(C)cc(OC)n1)S(=O)(=O)c1ccc(C)cc1,-10,-12,99,99
CC(C)Cc1ccc(C(C)c2nc3ccccc3[nH]2)cc1 (configuration not stated),·,-16,101,107
CC(=O)N1CCc2[nH]c3ccccc3c2C1,-2,-48,104,101
CC(=O)NC12CC3CC(C1)CC(C(=O)OCC(=O)Nc1cc(C)nn1-c1ccccc1)(C3)C2,-2,-20,102,108
Cc1c(C#N)c(NC(=O)Cc2c(Cl)cccc2Cl)n(C2CCCCC2)c1C,-4,0,·,·
CCOc1ccc(N(C(=O)NC2CCCCC2)C2=NCCCCC2)cc1,-7,-13,99,108
CC1C(O)C(N(C)C)CC2COCC21 (configuration not stated),·,6,102,100
COc1cc(/C=C2/SC(=S)N(NC(C)=O)C2=O)ccc1O,·,i,155,161
N#Cc1ccc(CSc2nnc(-c3cccc(S(=O)(=O)N4CCCCC4)c3)n2-c2ccccc2)cc1,22,-7,104,105
O=C(Cn1ncn2cccc2c1=O)N1CCCCC1,5,2,104,107
CN1CCC(NC(=S)NC2CC2)CC1,-10,-6,100,101
CN(C)C(=O)c1cc2c(=O)n3ccccc3nc2n1C,101,-1,101,98
